Compound activity deposited in PubChem BioAssay by Fisher Drug Discovery Resource Center.
NPYLR7 ag: activates Aedes aegypti NPYLR7 receptor | HEK293T NPYLR7/Galpha15, GCaMP6s calcium fluorescence | activation, % at 10 µM | 270,000 tested, 0.15% active; in the data active means activation above about 40%;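 further: 0% = vehicle and 100% = reference agonist at the receptor; some compounds past the cut are filed as inactive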
NPYLR7 ag max-min: also measured in NPYLR7 ag; calls as there; activation, %; measured here: Max-Min RFU normalised activation; some inactives read as strong as hits;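 span of the calcium signal over five minutes; 0% = vehicle and 100% = native peptide agonist; compound fluorescence can raise it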
Active calls of the source: *; & = joins results of further samples.

Each structure is followed by: NPYLR7 ag, NPYLR7 ag max-min
CC1CCCN(S(=O)(=O)NCc2ccccc2Cl)C1 (stereo not given)
 : 5.0, 2.7
CC(C)COC1CC(OC(=O)c2ccc(F)cc2F)C1(C)C (stereo not given)
 : -0.5, -2.4
COc1cccc(CSc2nnc(C(C)NC(=O)c3ccccc3OC)n2-c2cc(Cl)ccc2C)c1 (stereo not given)
 : -2.2, 12.8
CCn1nc(C)c(C(=O)NCc2csc(-c3cnccn3)n2)c1C
 : 24.8, 13.7
Cc1cc(=O)oc2cc(OCC(=O)N3CCCC(C(F)(F)F)C3)ccc12 (stereo not given)
 : -1.3, -1.4
Cc1nn(-c2ccc(C#N)cc2)c(N)c1C
 : 6.1, 3.6
CN1C(=CP(=O)(N(C)C)N(C)C)C(C)(C)c2ccccc21
 : 1.3, 0.1
COc1ccccc1-n1nc(CC(C)C)nc1CCn1c(C)cc(C)nc1=O
 : 18.5, 6.6
O=C1c2ccccc2C(=O)N1Cc1cc(Cl)cc2c3c([nH]c12)CCCC3
 : 5.3, 9.1
COc1c(C)cnc(CN(C)C(=O)c2[nH]c3c(c2C)C(=O)CCC3)c1C
 : 8.2, 9.7
Cc1nc2ncc3c(=O)n(-c4ccc(Br)cc4)ccc3n2n1
 : 1.8, 5.1
CC(C)(C)C(=O)c1sc2c(c1N)c(=O)[nH]c(=O)n2CC1CCCO1 (stereo not given)
 : 8.3, 6.1
O=S(=O)(Oc1ccc(Cl)cc1CNCc1ccc(F)cc1)c1ccc(F)cc1
 : 4.8, 4.2
CC(C)(C)C1CCc2sc(C(=O)N3CCCC(C(=O)Nc4nncs4)C3)cc2C1 (stereo not given)
 : -5.9, -7.5
CC(NC(=O)C(C)(C)Oc1ccc(Cl)cc1)c1cccs1 (stereo not given)
 : 14.4, 18.6
Cc1ccnc(NCCNC(=O)c2ccc(NC(=O)C3CCC3)cc2)c1
 : 5.2, -1.8
Cc1cccc(COC(CN2CCN(C(=O)NC(=O)c3ccccc3)CC2)c2ccc(Cl)cc2)c1 (stereo not given)
 : -3.5, 10.0
O=C(CCCc1cccs1)N1[C@H]2CCNC[C@@H]1CC2
 : 6.2, 4.2
Cc1c(C2CCCCC2)noc1N
 : -0.9, -2.6
CC1(c2ccccc2)NC(=O)N(NC(=O)c2cc(Cl)c[nH]2)C1=O (stereo not given)
 : 14.6, 11.0
CN(C)S(=O)(=O)c1ccc2[nH]c(=O)[nH]c2c1
 : 3.1, 2.1
COC(=O)Nc1cc(NC(=O)c2ccc(C)cc2C)ccc1F
 : -24.8, -26.3
c1csc(-c2noc(CN3CCCN(c4nc5ccccc5s4)CC3)n2)c1
 : 6.7&0.9, 7.2&-3.1
COc1ccc(-c2c(-c3ccc(OC)cc3O)n[nH]c2C)cc1
 : 3.9, 9.6
CC(=O)CC(C)(C)NC(=O)CCN1CCC(C(=O)Nc2ccccc2)CC1
 : 6.4, 5.2
CC(C)C(=O)Nc1ccc(C2=Nn3cc(-c4ccccc4)nc3SC2)cc1
 : 6.4, 7.3
COc1cc(C2CC(=O)Nc3cc4[nH]ncc4cc32)cc2c1OCO2 (stereo not given)
 : 6.3, -1.4
O=C(CN1C(=O)NC2(CCCCC2)C1=O)N1CCN(C(=O)c2ccco2)CC1
 : 1.3, 10.9
COc1ccc(OC)c2c(N3CCOCC3)cc(C(F)(F)F)nc12
 : 14.8, 11.1
CC(C)OCC(=O)N1CCCC(C(=O)c2ccc(C(F)(F)F)cc2)C1 (stereo not given)
 : 12.6, 10.7
c1ccc2c(c1)CCN(C1CCN(Cc3cccc4nccnc34)CC1)C2
 : 10.7, 2.9
COc1ccc(C2(C(=O)N3CCNC(C(=O)O)C3)CC2)cc1 (stereo not given)
 : 6.3, 2.5
COc1c2c(nc3ccccc13)OC(C(C)(O)CO)C2 (stereo not given)
 : 11.5&4.2, -2.4&2.3
CC(c1ccccn1)N(C)C(=O)Cn1c(=O)oc2ccccc21 (stereo not given)
 : -4.5, -4.6
Cc1cc(C)n(-c2nc3c(c(C(F)(F)F)n2)CC(C)CC3)n1 (stereo not given)
 : 0.0, 1.0
CCOC(=O)C1(Cc2ccccc2)CCCN(Cc2ccc(NC(C)=O)cc2)C1 (stereo not given)
 : -1.6, -4.9
COc1ccc(OC)c(N2CCN(S(=O)(=O)c3ccc(C)cc3)C(C)C2=O)c1 (stereo not given)
 : 1.1, 4.2
Cn1cc(C(=O)N2CCN(CCc3ccccc3)CC2)c2nn(-c3ccccc3)c(=O)c-2c1
 : -3.9, -8.4
C[C@@]12C(=O)N(CC3CC3)c3ccccc3[C@@H]1[C@@H](C(N)=O)CN2C(=O)/C=C/c1ccccc1
 : -1.4, 11.3
CCOC(=O)C(CC)n1nc(C)n2c(cc3occc32)c1=O (stereo not given)
 : -6.5, -7.0
CCN(Cc1ccc(OC)c(F)c1)C(=O)c1sc2nc(CSC)[nH]c(=O)c2c1C
 : -1.6, -3.1
COc1cccc(C(=O)N2CCC(c3nc(C)ccc3C(=O)N3CCC4CCCCC4C3)CC2)c1 (stereo not given)
 : 2.8, 0.9
O=C(Nc1cn[nH]c1)N1CCN(S(=O)(=O)c2ccc(F)cc2)CC1
 : 1.3, -0.8
C=CCN(Cc1ccccc1C)C(=O)COc1ccc2c(c1)OCO2
 : 2.0, -0.5
Cc1nc(C)c(-c2ccc(SCC(=O)N3CCN(c4ccccc4)CC3)nn2)s1
 : -4.6, -12.4
O=C(Nc1ccc2[nH]cc(CCN3CCOCC3)c2c1)c1cccc2c1-c1ccccc1C2=O
 : 8.4, 7.3
CN(C)c1ncccc1CNC(=O)c1cccc2c1NCCC2
 : 3.2, 3.4
Nc1ccc2nn(-c3ccc(Cl)cc3)nc2c1
 : -7.4, -7.6
O=c1nc2n(c3ccccc13)Cc1cc(=O)n3c(sc4ccccc43)c1-2
 : 6.6, 1.8
Cc1nnc(SCCCNC(=O)c2nn(C)c3c2CCCC3)s1
 : 7.6, 2.8
Cc1ccc(Cn2c(C)c(C(=O)NC3CC3)sc2=O)cc1
 : 1.3, -0.7
CCNc1ncc(-c2nc(CCc3ccccc3)nn2-c2ccccn2)cn1
 : 6.5, -8.2
CCCc1n[nH]c(=S)n1CC(=O)N1CCN(C(=O)C2CC2)CC1
 : -0.3, 1.2
CC(=O)NCC(c1ccc2c(c1)CCN2C)N1CCOCC1 (stereo not given)
 : 13.8, 11.3
N#Cc1ccccc1NC(=O)CCN1CCCc2ccccc21
 : 3.2, 2.6
CSc1nc(N)c(C#N)c(C(C)C)c1C#N
 : -4.4, -13.8
COc1ccc(C2NC(=O)NC(C)=C2C(=O)Nc2cccc(Cl)c2)cc1 (stereo not given)
 : -13.7, -14.4
CCOc1ccccc1N1CCN(C(=O)c2ccco2)C(C)C1=O (stereo not given)
 : 19.0, 25.2
CN1CCCC2(CCN(S(=O)(=O)c3ccc(-c4cnco4)s3)C2)C1=O (stereo not given)
 : 13.3, 4.9
CS(=O)(=O)N1CCc2cc(C(=O)Nc3nc(-c4ccccc4Cl)cs3)ccc21
 : -2.3, -9.3

As a working copy, 2 of the compounds above:
Each structure is followed by: NPYLR7 ag, NPYLR7 ag max-min
CN1CCCC2(CCN(S(=O)(=O)c3ccc(-c4cnco4)s3)C2)C1=O (stereo not given)
 : 13.3, 4.9
CS(=O)(=O)N1CCc2cc(C(=O)Nc3nc(-c4ccccc4Cl)cs3)ccc21
 : -2.3, -9.3

Continued.
Each structure is followed by: NPYLR7 ag, NPYLR7 ag max-min
CCc1nc2c(OCc3ccc(C(=O)N(C)C)cc3)cccn2c1N(C=O)CC(=O)N(C)C
 : 11.8, -3.0
CC1CN(c2ccccc2)c2nc3c(c(=O)n(Cc4ccccc4)c(=O)n3C)n2C1 (stereo not given)
 : -1.8, -3.2
CN=c1scc(-c2ccc(OC)cc2)n1N=Cc1ccc(C#N)cc1
 : 12.5, 8.8
CC(=O)NC(c1ccccc1)c1nc(-c2cnc3ccccc3c2)cs1 (stereo not given)
 : 6.9, 3.8
COCC(=O)N1CCC2(CC1)CN(Cc1ccc(N(C)C)nc1)CCN2C
 : 9.3, 2.5
Cc1ccc(Cc2cnc(NC(=O)C3Cc4ccc(C)cc4C(=O)O3)s2)cc1 (stereo not given)
 : -3.8, -0.4
Cc1ccccc1CNC(=O)CN1CCCCC1CCN1CCOCC1 (stereo not given)
 : 0.0, -1.7
C=CCn1c(SCc2ccc(C(=O)NCc3ccncc3)cc2)nnc1-c1cccc(OC)c1
 : 22.0, 17.0
CO[C@H]1CN(c2ccccn2)[C@H]2Cc3c(oc4ccccc34)[C@@H]1C2
 : 8.2, 19.4
CCOC1CC(=O)C12CCCC2 (stereo not given)
 : -5.5, -5.3
Cn1cc(C(=O)NC2CCN(C(=O)c3ccc4c(c3)CCC4)CC2)cn1
 : -26.7, -27.6
CCc1ccc(CNC(=O)c2cc(F)ccc2OC)s1
 : -2.0, -1.2
Cc1ccc(-c2noc(CCN(Cc3ccccc3)CC(O)COCc3ccccc3)n2)cc1Cl (stereo not given)
 : 2.2, 0.6
O=C(c1cccc(F)c1)N1CCCC(OCc2ccccc2F)C1 (stereo not given)
 : -9.7, -4.1
Cc1nc2ccc(NC(=O)C(=O)NC3CCCC(C(F)(F)F)C3)cc2o1 (stereo not given)
 : -1.6, 48.1
CCOc1ccc(/C=N\NC(=O)CSc2nnc(-c3ccc(OC)c(OC)c3)n2-c2ccccc2)cc1
 : -6.8, -8.5
CCc1ccc(C(=O)N2CCN(C(=O)CCCn3ccnc3C)CC2)cc1
 : 17.0, 13.0
COc1ccc(C(=O)Nc2cc(C)nn2-c2nc3ccccc3s2)cc1
 : -5.3, -12.5
CCN1CCC(NC(=O)c2ccc(NC(=O)c3cccs3)cc2)CC1
 : -0.9, -0.6
O=S1(=O)N=C(Nc2ccc(O)cc2)c2ccccc21
 : 4.0, 1.2
O=C1/C(=C/c2ccc(-c3ccc(Br)cc3)o2)C=C(c2ccccc2)N1c1ccc(O)cc1
 : 0.5, 5.7
CNc1ccccc1C(=O)NCC1CCN(Cc2cnc(C)nc2)C1 (stereo not given)
 : 8.9, 3.9
CCCCc1nc(N2CCCN(C(=O)COc3ccccc3)CC2)c2c(C)nn(-c3ccccc3)c2n1
 : -6.5, -3.7
N#CC1C(c2ccsc2)C(C(N)=O)C(=O)NC1(O)c1ccccc1 (stereo not given)
 : 23.3, 22.7
Cc1ccc(C)n1C(C)C(=O)N1CCOc2ccccc21 (stereo not given)
 : 3.3, 1.5
Cc1cn2c3c(=O)n(Cc4ccccc4Cl)c(=O)n(C)c3nc2n1CCN1CCOCC1
 : -1.8, 32.2
Cc1ccc(CNC(=O)CCc2nnc(-c3ccc4c(c3)OCO4)o2)c(F)c1F
 : 6.4, 5.9
Cc1nc2ccc(CC(=O)N3CCC4(CC3)CNC(=O)C4)cc2[nH]1
 : 20.4, 17.9
CCCCCCCSc1nc2nc(C)cc(C)n2n1
 : 0.5, -0.8
CC(C)c1c(C(=O)NCC2CC2)cnn1-c1ccccc1
 : -14.9, -17.9
Cc1ccc(-c2csc(-n3nc(C)cc3NC(=O)c3ccc(S(=O)(=O)N(C)C)cc3)n2)cc1
 : -10.1, -15.0
O=C1NCC(CN(c2ccccc2)c2ccccc2)O1 (stereo not given)
 : 4.9, -0.8
C[C@H](NC(=O)[C@@H](O)c1cc(F)cc(F)c1)C(=O)N[C@@H]1C(=O)N(C)c2ccccc2-c2ccccc21
 : -5.3, -9.7
O=C(O)CN(CC(=O)O)C(=O)/C=C/c1ccccc1
 : 4.8, 3.0
CC(C)n1cnnc1CN(C)c1cc(N2CCOCC2)nc(N)n1
 : 2.8, 2.4
CCN1CCN(C(=O)CCCSc2ccc(NC(=O)c3ccc(F)cc3)nn2)CC1
 : -5.8, -4.9
COc1cc(C2CC(C(F)(F)F)n3ncc(C(=O)N4CCCCC4)c3N2)cc(OC)c1OC (stereo not given)
 : 4.1, 1.0
Cc1ccc(OCC2c3ccsc3CCN2C(=O)CN(C(=O)c2cccc(Cl)c2)C2CC2)c(C)c1 (stereo not given)
 : -2.7, 1.3
CCCSCC(=O)N(C)C(c1cccc(F)c1)c1cnn(C)c1 (stereo not given)
 : -3.3, -8.2
O=C1COc2ccc(NC(=O)c3c4c(nn3C3CCS(=O)(=O)C3)CCC4)cc2N1 (stereo not given)
 : 13.5, 8.9

One compound at a time, from the list above. Values in the order: NPYLR7 ag, NPYLR7 ag max-min
Cc1cn2c3c(=O)n(Cc4ccccc4Cl)c(=O)n(C)c3nc2n1CCN1CCOCC1 across the screens: -1.8, 32.2
COc1cc(C2CC(C(F)(F)F)n3ncc(C(=O)N4CCCCC4)c3N2)cc(OC)c1OC (stereo not given) across the screens: 4.1, 1.0
Cc1ccc(C)n1C(C)C(=O)N1CCOc2ccccc21 (stereo not given) across the screens: 3.3, 1.5

(list continues)
Each structure is followed by: NPYLR7 ag, NPYLR7 ag max-min
O=C(NCc1nnnn1-c1ccc(F)c(F)c1)c1ccc(F)cc1
 : 3.5, 0.8
C=CCOc1c(Br)cc(C2c3cc4c(cc3OC(=N)C2C#N)OCO4)cc1OC (stereo not given)
 : 3.0, 1.8
Oc1ccc(C(O)CSc2nnc(NCc3ccco3)s2)cc1 (stereo not given)
 : -1.3, -4.0
Cc1cccnc1C(NC(=O)C1CCN(Cc2cccs2)CC1)c1ccc(Cl)cc1 (stereo not given)
 : -16.8, -19.2
O=C(NC1CS(=O)(=O)c2ccccc21)c1cnn(-c2ccccc2Cl)c1 (stereo not given)
 : 3.0, 2.4
COc1ccc(CN(C)c2ccc(-c3nccn3C)nn2)cc1OC
 : 19.5, 5.6
CCOC(=O)N1CCN(C(=O)c2csc(CSc3nnc(Cc4ccccc4)n3-c3cccc(Cl)c3)n2)CC1
 : 34.0, 32.3
O=C(CNC(=O)c1ccccc1Cl)N=Nc1c(O)n(Cc2ccc3c(c2)OCO3)c2ccccc12
 : -2.6, -0.8

Not all compounds are listed, so the mix of outcomes need not match the whole.
